# Vaccinia stage – blocks a specific stage of Vaccinia orthopoxvirus infection, primary screen, cell-based, single point | Vaccinia-infected cells, mCherry/Venus stage reporter fluorescence; stronger effect = lower value; some inactives read as strong as hits | activity change (mCherry), % (no concentration beside the values) | 89,000 compounds, 0.01% hits | AID 1053133, 2014;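 active = mCherry past -33% and 40 or more points under the early reporter, replicates agreeing; inconclusive = past -33% without that gap or agreement; tested in A549 cells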;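 note: scaled between vehicle wells and reference inhibitor wells; 23 nL library stock went into each well; one replicate is shown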
# Vaccinia stage Venus – second read-out of Vaccinia stage, no call of its own (marks repeat the call); activity change (Venus), %; measured here: Venus reporter, other viral stage;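 negative = less Venus signal; first of two replicates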
# The depositor's hits bear a star; ? = inconclusive; nt = no result given.
SMILES,Vaccinia stage,Vaccinia stage Venus
O=C(Nc1ccccc1F)N1CC(=O)N2[C@H](C1)[C@H](c1ccc(C#CC3CC3)cc1)[C@@H]2CO,3.3,-0.8
COc1ccc(S(=O)(=O)Nc2ccc3c(c2)C(=O)N([C@H](C)CO)C[C@@H](C)[C@@H](CN(C)C(=O)NC2CCCCC2)O3)cc1,7.4,-3.2
C[C@@H]1CN([C@@H](C)CO)C(=O)c2cc(C#CC3(O)CCCC3)cnc2O[C@H]1CN(C)C(=O)CC1CC1,2.5,3.0
CC(C)CC#Cc1cnc2c(c1)C(=O)N([C@@H](C)CO)C[C@@H](C)[C@@H](CN(C)C(=O)c1cccnc1)O2,-3.2,-8.4
CC(C)NC(=O)Nc1cccc2c1O[C@@H](CN(C)Cc1ccc(C(F)(F)F)cc1)[C@H](C)CN([C@@H](C)CO)C2=O,-28.6,-28.1
C[C@@H]1CCCCO[C@H](CN(C)S(=O)(=O)c2ccccc2)[C@H](C)CN([C@@H](C)CO)C(=O)c2cc(NC(=O)c3ccncc3)ccc2O1,-12.1,-10.2
C[C@@H]1CN([C@@H](C)CO)C(=O)c2c(c3ccccc3n2C)-c2ccccc2CO[C@@H]1CN(C)Cc1cccc(C(=O)O)c1,13.9,-1.0
C[C@H](CO)N1C[C@H](C)[C@@H](CN(C)Cc2ccc(C(F)(F)F)cc2)Oc2ccc(NC(=O)CCN3CCOCC3)cc2C1=O,-0.2,-1.6
C[C@@H]1CCCCO[C@@H](CN(C)C(=O)Nc2ccc(F)cc2)[C@H](C)CN([C@H](C)CO)C(=O)c2cc(NC(=O)c3ccccc3)ccc2O1,-11.5,-2.2
COC(=O)C[C@H]1C[C@H]2c3cc(NC(=O)Cc4ccncc4)ccc3O[C@H]2[C@H](CO)O1,15.3,2.3
CC(=O)N1[C@H](CO)[C@H](c2ccccc2)[C@H]1CNC(=O)CN1CCOCC1,16.3,5.4
O=C(C[C@H]1C[C@@H]2c3cc(NC(=O)CC4CC4)ccc3O[C@@H]2[C@@H](CO)O1)NCc1ccc2c(c1)OCO2,-4.9,-7.1
Cc1ccc(S(=O)(=O)Nc2cccc3c2O[C@@H](CN(C)Cc2ccc(-c4ccccc4)cc2)[C@H](C)CN([C@H](C)CO)C3=O)cc1,-20.6,-8.4
C[C@H]1CN([C@@H](C)CO)S(=O)(=O)c2ccc(-c3ccncc3)cc2O[C@H]1CN(C)Cc1ccccc1,-17.6,-16.9
CO[C@@H]1CN(C)C(=O)c2ccc(NS(C)(=O)=O)cc2OC[C@H](C)N(CC2CC2)C[C@H]1C,0.9,-1.1
COc1ccc(-c2ccc3c(c2)O[C@H](CN(C)C(C)=O)[C@H](C)CN([C@@H](C)CO)S3(=O)=O)cc1,-0.3,0.2
C[C@H](CO)N1C[C@H](C)[C@H](CN(C)S(=O)(=O)c2ccc(F)cc2)Oc2ccc(NS(=O)(=O)c3ccc(F)cc3)cc2CC1=O,-0.3,7.0
CC(C)NC(=O)Nc1cccc2c1O[C@H](CN(C)S(C)(=O)=O)[C@@H](C)CN([C@H](C)CO)C2=O,10.1,-1.3
O=C(C[C@@H]1C=C[C@H](NC(=O)CN2CCOCC2)[C@H](CO)O1)NC1CCCCC1,7.6,4.3
O=C(C[C@H]1CC[C@@H]2[C@H](COC[C@@H](O)CN2Cc2cc(F)cc(F)c2)O1)NC1CCC1,-0.2,4.0
COc1ccc(-c2ccc([C@@H]3[C@@H](CO)N4C(=O)CN(Cc5ccc(F)cc5)C[C@H]34)cc2)cc1,3.5,2.1
O=C(CN1CCOCC1)N[C@H]1CC[C@H](CCn2cc(C3CC3)nn2)O[C@@H]1CO,23.6,17.5
CC(C)C#Cc1cnc2c(c1)C(=O)N([C@@H](C)CO)C[C@H](C)[C@H](CN(C)C(=O)Cc1ccccn1)O2,1.7,2.2
Cc1noc(C)c1S(=O)(=O)Nc1ccc2c(c1)C(=O)N([C@H](C)CO)C[C@H](C)[C@@H](CN(C)Cc1ccc(C(=O)O)cc1)OCCCC[C@H](C)O2,13.2,5.2
C[C@H]1CN([C@@H](C)CO)C(=O)c2cccc(NC(=O)Nc3ccc(C(F)(F)F)cc3)c2O[C@H]1CN(C)Cc1ccc(-c2ccccc2)cc1,?,nt

# Compound profiles (already shown). Screens in order: Vaccinia stage	Vaccinia stage Venus
# Profile of O=C(C[C@@H]1C=C[C@H](NC(=O)CN2CCOCC2)[C@H](CO)O1)NC1CCCCC1 → 7.6	4.3
# Profile of O=C(C[C@H]1C[C@@H]2c3cc(NC(=O)CC4CC4)ccc3O[C@@H]2[C@@H](CO)O1)NCc1ccc2c(c1)OCO2 → -4.9	-7.1
# Profile of CC(=O)N1[C@H](CO)[C@H](c2ccccc2)[C@H]1CNC(=O)CN1CCOCC1 → 16.3	5.4
# Profile of CO[C@@H]1CN(C)C(=O)c2ccc(NS(C)(=O)=O)cc2OC[C@H](C)N(CC2CC2)C[C@H]1C → 0.9	-1.1
# Profile of C[C@@H]1CCCCO[C@H](CN(C)S(=O)(=O)c2ccccc2)[C@H](C)CN([C@@H](C)CO)C(=O)c2cc(NC(=O)c3ccncc3)ccc2O1 → -12.1	-10.2

# New compounds follow.
SMILES,Vaccinia stage,Vaccinia stage Venus
C[C@H](CO)N1C[C@H](C)[C@H](CN(C)C(=O)Nc2cccc3ccccc23)Oc2ccc(NC(=O)Nc3ccc4c(c3)OCO4)cc2C1=O,18.4,22.7
O=C(NCc1ccccc1)C1=C[C@H](c2coc3ccccc3c2=O)C[C@H](OCc2ccc(CO)cc2)O1,-8.9,4.2
C[C@H](CO)N1C[C@H](C)[C@H](CN(C)Cc2ccccc2)Oc2ccc(NS(=O)(=O)c3ccc(Cl)cc3)cc2C1=O,6.2,1.1
CC(C)C#Cc1cnc2c(c1)C(=O)N([C@@H](C)CO)C[C@H](C)[C@@H](CN(C)C(=O)c1ccccn1)O2,46.4,17.8
C[C@H](CO)N1C[C@H](C)[C@H](CN(C)Cc2ccccc2)Oc2ccc(NS(C)(=O)=O)cc2C1=O,8.9,7.2
Cc1noc(C)c1S(=O)(=O)Nc1ccc2c(c1)C(=O)N([C@@H](C)CO)C[C@H](C)[C@H](CN(C)S(=O)(=O)c1cn(C)cn1)OCCCC[C@@H](C)O2,31.8,12.6
C[C@H]1CN([C@@H](C)CO)C(=O)Cc2cc(NS(=O)(=O)c3cn(C)cn3)ccc2O[C@@H]1CN(C)S(=O)(=O)c1ccccc1,2.8,7.1
O=C(Nc1ccc2c(c1)[C@H]1C[C@H](CC(=O)N3CCCCC3)O[C@@H](CO)[C@H]1O2)C1CCC1,6.6,3.5
COc1ccc(-c2ccc(C3[C@H]4CNC[C@@H]3N4S(=O)(=O)c3cn(C)cn3)cc2)cc1 (stereo not given in full),-2.6,-12.7
COc1ccc2c3c(n(C)c2c1)[C@@H](CO)NCC31CCN(S(=O)(=O)c2cccc(C)c2)CC1,?,nt
C[C@@H]1CN([C@@H](C)CO)C(=O)c2cc(NC(=O)CCC(F)(F)F)ccc2O[C@@H](C)CCCCO[C@H]1CN(C)C(=O)CCC(F)(F)F,-24.6,-16.1
C[C@@H]1CN([C@H](C)CO)C(=O)Cc2cc(NS(C)(=O)=O)ccc2O[C@H]1CN(C)Cc1ccc(Oc2ccccc2)cc1,-9.1,-10.6
O=C(C[C@@H]1CC[C@@H](NC(=O)Cc2cccnc2)[C@@H](CO)O1)NCc1ccc2c(c1)OCO2,6.2,6.9
C[C@H]1CN([C@@H](C)CO)C(=O)c2cc(NS(=O)(=O)c3cccs3)ccc2O[C@H]1CN(C)Cc1ccncc1,2.0,-0.1
C[C@H]1CN([C@@H](C)CO)C(=O)c2cc(NS(=O)(=O)c3cn(C)cn3)ccc2O[C@H]1CN(C)Cc1ccc(C(F)(F)F)cc1,6.1,5.2
CC(C)NC(=O)N(C)C[C@H]1Oc2ccc(NC(=O)Cc3ccccc3)cc2CC(=O)N([C@@H](C)CO)C[C@H]1C,8.8,0.8
CO[C@H]1CN(C)C(=O)c2cc(NC(=O)Nc3c(C)noc3C)ccc2OC[C@H](C)N(CCC(F)(F)F)C[C@@H]1C,-11.8,-1.7
Cc1ccc(S(=O)(=O)Nc2ccc3c(c2)C(=O)N([C@@H](C)CO)C[C@@H](C)[C@H](CN(C)C(=O)Cc2ccccc2)OCCCC[C@@H](C)O3)cc1,-23.4,-28.4
CCCN1C[C@@H](C)[C@@H](OC)CN(C)C(=O)c2cc(NC(=O)c3ccccc3)ccc2OC[C@H]1C,0.1,-0.5
Cc1ccc(S(=O)(=O)N(C)C[C@H]2OCCCC[C@H](C)Oc3ccc(NC(=O)Nc4ccc(F)cc4)cc3C(=O)N([C@@H](C)CO)C[C@H]2C)cc1,14.7,6.2
COCC(=O)N1CCC2(CC1)CN(Cc1cccc(F)c1)[C@@H](CO)c1c2c2ccc(OC)cc2n1C,-2.6,3.3
COc1ccc(NC(=O)N(C)C[C@H]2Oc3c(NS(=O)(=O)c4ccc(C)cc4)cccc3C(=O)N([C@@H](C)CO)C[C@H]2C)cc1,-4.8,-2.5
CC(C)NC(=O)N(C)C[C@@H]1Oc2c(NS(=O)(=O)c3cccs3)cccc2C(=O)N([C@@H](C)CO)C[C@H]1C,16.4,17.9
COc1ccc(-c2ccc3c(c2)[C@@H]2[C@@H](CCN2C(=O)c2ccncc2)[C@@H](CO)N3C)cc1,23.4,9.4
C[C@@H]1CN([C@H](C)CO)C(=O)c2cc(NC(=O)CCCN(C)C)ccc2O[C@H]1CN(C)S(=O)(=O)c1cccs1,23.8,12.4
SMILES,Vaccinia stage,Vaccinia stage Venus
C[C@@H]1CN([C@H](C)CO)C(=O)c2cc(NC(=O)Cc3ccccc3)ccc2O[C@@H]1CN(C)C(=O)Nc1ccc(F)cc1,18.9,19.4
C[C@@H]1CCCCO[C@@H](CN(C)C(=O)c2ccccc2)[C@@H](C)CN([C@@H](C)CO)C(=O)c2cc(NC(=O)Nc3ccccc3)ccc2O1,28.2,13.4
C[C@@H]1CN([C@H](C)CO)C(=O)c2cc(-c3ccncc3)cnc2O[C@H]1CN(C)C(=O)c1ccncc1,25.7,8.2
COc1ccc(-c2ccccc2[C@H]2[C@@H](CO)N(C(=O)NC(C)C)[C@H]2C#N)cc1,5.2,0.3
CN(C)C(=O)C[C@H]1CC[C@@H](NC(=O)NC2CCCCC2)[C@@H](CO)O1,13.3,14.6
O=C(C[C@H]1CC[C@H]2[C@@H](COC[C@@H](O)CN2S(=O)(=O)c2ccc(F)cc2)O1)NCC1CCCCC1,-5.1,1.7
C[C@H]1CN([C@@H](C)CO)C(=O)c2cccc(NC(=O)C3CCOCC3)c2O[C@H]1CN(C)C(=O)Nc1ccc2c(c1)OCO2,4.7,2.6
C[C@H](CO)N1C[C@H](C)[C@@H](CN(C)C(=O)NC2CCCCC2)OCCCC[C@H](C)Oc2ccc(NS(=O)(=O)c3ccc(F)cc3)cc2C1=O,-34.3,-34.4
COc1ccccc1NC(=O)Nc1ccc2c(c1)C(=O)N(C)C[C@@H](OC)[C@H](C)CN(Cc1ccccc1Cl)[C@H](C)CO2,-31.5,-17.0
CO[C@H]1CN(C)C(=O)c2ccc(NC(=O)c3ccccc3)cc2OC[C@@H](C)N(CC2CC2)C[C@@H]1C,-4.9,-4.0
COc1ccc(CN(C)C[C@H]2Oc3ccc(N(C)C)cc3CC(=O)N([C@H](C)CO)C[C@H]2C)cc1,-3.7,-6.8
C[C@@H]1CN([C@H](C)CO)S(=O)(=O)c2ccc(C3=CCCCC3)cc2O[C@@H]1CN(C)Cc1ccccc1,-11.1,-13.9
C[C@@H]1CN([C@@H](C)CO)C(=O)Cc2cc(NC(=O)CCCN(C)C)ccc2O[C@H]1CN(C)S(=O)(=O)c1ccccc1,10.7,-2.1
O=C(NCC1CC1)[C@H]1[C@H](CO)[C@H]2Cn3c(ccc(-c4ccccc4)c3=O)[C@H]2N1Cc1cocn1,13.4,13.2
CO[C@H]1CN(C)C(=O)c2cc(C#N)ccc2OC[C@@H]2O[C@@H](CC[C@H]2OC)CCN(C)C(=O)[C@H]1C,15.8,12.2
Cc1ccc(S(=O)(=O)Nc2ccc3c(c2)C(=O)N([C@H](C)CO)C[C@H](C)[C@@H](CN(C)CC2CCCCC2)O3)cc1,5.2,11.1
CO[C@H]1CN(C)C(=O)c2cc(NS(=O)(=O)CC(F)(F)F)ccc2OC[C@H](C)N(CCC(F)(F)F)C[C@@H]1C,1.6,-4.5
CO[C@@H]1CN(C)C(=O)c2ccc(NS(C)(=O)=O)cc2OC[C@H](C)N(Cc2cccnc2)C[C@H]1C,5.5,11.2
COc1ccc(NC(=O)N(C)C[C@@H]2OCCCC[C@H](C)Oc3ccc(NS(=O)(=O)c4cn(C)cn4)cc3C(=O)N([C@H](C)CO)C[C@H]2C)cc1,14.4,-0.8
O=C(NC1CC1)C1=C[C@@H](c2csc3ccccc23)C[C@@H](OCc2ccc(CO)cc2)O1,5.8,-5.8
C[C@@H]1CN([C@@H](C)CO)C(=O)c2cc(Br)cnc2O[C@@H]1CN(C)CC1CCOCC1,6.5,7.9
COc1cccc(S(=O)(=O)Nc2ccc3c(c2)C(=O)N(C)[C@@H]2CC[C@H](CC(=O)NCC4CCCCC4)O[C@H]2CO3)c1,19.4,11.6
C[C@@H]1CN([C@@H](C)CO)C(=O)c2cc(NS(=O)(=O)c3cccs3)ccc2O[C@@H](C)CCCCO[C@@H]1CN(C)C,20.9,12.6

# Not a retest: two of the compounds above.
SMILES,Vaccinia stage,Vaccinia stage Venus
C[C@@H]1CN([C@H](C)CO)C(=O)c2cc(NC(=O)Cc3ccccc3)ccc2O[C@@H]1CN(C)C(=O)Nc1ccc(F)cc1,18.9,19.4
C[C@@H]1CCCCO[C@@H](CN(C)C(=O)c2ccccc2)[C@@H](C)CN([C@@H](C)CO)C(=O)c2cc(NC(=O)Nc3ccccc3)ccc2O1,28.2,13.4

# Compound activity as filed in PubChem BioAssay.

# These rows are one share of the data. The share of hits here may be higher or lower than overall.
